NPYLR7 ag = mosquito NPYLR7 agonism; activation, % at 10 µM; HEK293T NPYLR7/Galpha15, GCaMP6s calcium fluorescence; AID 1259423; 270,000 tested, 0.15% active; in the data active = activation above about 40%;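 also: 0% = vehicle and 100% = reference agonist at the receptor; some compounds past the cut are filed as inactive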
NPYLR7 ag max-min = recorded beside NPYLR7 ag, whose call it bears; activation, %; measured here: Max-Min RFU normalised activation; some inactives read as strong as hits;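 span of the calcium signal over five minutes; 0% = vehicle and 100% = native peptide agonist; compound fluorescence can raise it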
Active calls of the source: *; & = joins results of further samples. Only part of the results is shown; count on the stated rates, not on these rows.

For Cc1ccccc1CSC1=NCCN1S(=O)(=O)c1ccc([N+](=O)[O-])cc1 the results were NPYLR7 ag 8 and NPYLR7 ag max-min 9.
`c1csc(-c2noc(CSc3ncnc4sccc34)n2)c1` gave NPYLR7 ag 8 and NPYLR7 ag max-min 6.
Screening CCc1nc2ccc(C(=O)N3CCN(C(C)=O)CC3)cn2c1N(CC)Cc1ccc(OC)c(OC)c1 returned NPYLR7 ag 13 and NPYLR7 ag max-min 6.
`OC1CCN(c2ccnc(N3CCc4onc(-c5cccc(F)c5)c4C3)n2)C1` (configuration not stated) gave NPYLR7 ag 18 and NPYLR7 ag max-min 10.
Screening CN(C)CCN(Cc1ccccc1)C(=O)c1cc(-c2ccccc2F)nc2cc(C(C)(C)C)nn12 returned NPYLR7 ag -8&18 and NPYLR7 ag max-min -3&28.
For CC(=O)c1ccc(C(=O)N(CC#Cc2ccccc2)CC(C)C)s1 the results were NPYLR7 ag -1 and NPYLR7 ag max-min -6.
CCN(CCc1ccncc1)S(=O)(=O)c1ccc(N2C(=O)CCS2(=O)=O)cc1C was read as NPYLR7 ag 0 and NPYLR7 ag max-min -1.
For Nc1ncnc(Nc2cc(C(F)(F)F)ccc2Cl)c1[N+](=O)[O-] the results were NPYLR7 ag 2 and NPYLR7 ag max-min 0.
COC(=O)c1ccc(NC(=O)CCN[C@H]2c3ccccc3C[C@H]2O)cc1 was read as NPYLR7 ag 29 and NPYLR7 ag max-min 13.
Screening COc1ccc(CNC(=O)c2sc(=O)n(Cc3cccc(F)c3)c2C)cc1 returned NPYLR7 ag 13 and NPYLR7 ag max-min 7.
Screening COc1ccc(C(=O)N2CCC3(CC2)c2ccccc2[C@@H](NC(=O)c2ccncc2)[C@@H]3OC)cc1F returned NPYLR7 ag 5 and NPYLR7 ag max-min 3.
Screening C/C=C\COC1CCCN(C(=O)c2ccc(Br)cc2)C1 (configuration not stated) returned NPYLR7 ag -2 and NPYLR7 ag max-min 5.
`CCCCCCCCCCCC(=O)N(CCOC)CC(=O)N(Cc1ccccc1)Cc1sccc1C` gave NPYLR7 ag -12 and NPYLR7 ag max-min -7.
`O=C(c1sc(Cl)c(Cl)c1Cl)N1CCN(CCCOC(c2ccc(Cl)cc2)c2ccc(Cl)cc2)CC1` gave NPYLR7 ag 3 and NPYLR7 ag max-min 4.
CS(=O)(=O)c1ccc(-c2cccc(NS(=O)(=O)c3cccs3)c2)nn1 was read as NPYLR7 ag 11 and NPYLR7 ag max-min 4.
Screening CC(C)(CCl)C(=O)N1CCC[C@@H]1C(=O)NCCCNC(=O)c1ccc(F)cc1 returned NPYLR7 ag 30 and NPYLR7 ag max-min 36.
CC(C)Cc1ccc(CN2CCC(N3CCCC3=O)CC2)s1 was read as NPYLR7 ag 9 and NPYLR7 ag max-min 7.
`CCN1CCN(C(c2ccc(Cl)cc2)c2c(O)cc(C)n(Cc3ccc(OC)cc3)c2=O)CC1` (configuration not stated) gave NPYLR7 ag 14 and NPYLR7 ag max-min 6.
`CC(=O)c1cn(CC(=O)Nc2cnc3n2CCCC3)c2ccccc12` gave NPYLR7 ag 3 and NPYLR7 ag max-min 2.
COC(=O)c1cc2n(n1)CCN(C(=O)NCCc1ccc(F)cc1)C2 was read as NPYLR7 ag 5 and NPYLR7 ag max-min 2.

Six compounds from above, ordered by number of heavy atoms, high to low.
`CCCCCCCCCCCC(=O)N(CCOC)CC(=O)N(Cc1ccccc1)Cc1sccc1C` gave NPYLR7 ag -12 and NPYLR7 ag max-min -7.
`O=C(c1sc(Cl)c(Cl)c1Cl)N1CCN(CCCOC(c2ccc(Cl)cc2)c2ccc(Cl)cc2)CC1` gave NPYLR7 ag 3 and NPYLR7 ag max-min 4.
`CCN1CCN(C(c2ccc(Cl)cc2)c2c(O)cc(C)n(Cc3ccc(OC)cc3)c2=O)CC1` (configuration not stated) gave NPYLR7 ag 14 and NPYLR7 ag max-min 6.
Screening CC(C)(CCl)C(=O)N1CCC[C@@H]1C(=O)NCCCNC(=O)c1ccc(F)cc1 returned NPYLR7 ag 30 and NPYLR7 ag max-min 36.
CS(=O)(=O)c1ccc(-c2cccc(NS(=O)(=O)c3cccs3)c2)nn1 was read as NPYLR7 ag 11 and NPYLR7 ag max-min 4.
Screening C/C=C\COC1CCCN(C(=O)c2ccc(Br)cc2)C1 (configuration not stated) returned NPYLR7 ag -2 and NPYLR7 ag max-min 5.

Following part:
`COCC(=O)N1CCCN(Cc2ccc(C(C)=O)cc2)CC1` gave NPYLR7 ag 1 and NPYLR7 ag max-min -2.
`Cc1ccc(NC2=C(n3nnc4ccccc43)C(=O)c3ccccc3C2=O)cc1` gave NPYLR7 ag 2 and NPYLR7 ag max-min -3.
`CNc1cc(-c2ccccc2O)ncn1` gave NPYLR7 ag 0 and NPYLR7 ag max-min 0.
`Cc1ccc(-c2nc(C=Nc3ccc(O)cc3)c(O)o2)cc1` gave NPYLR7 ag -2 and NPYLR7 ag max-min -8.
O=c1[nH]c(=O)c2nc3nn(-c4ccccc4)nc3nc2[nH]1 was read as NPYLR7 ag 14 and NPYLR7 ag max-min 12.
For O=C(c1coc(CN2CCN(C/C=C/c3ccccc3)CC2)n1)N1C[C@H]2CC[C@H]1C2 the results were NPYLR7 ag 12 and NPYLR7 ag max-min 4.
Screening CC1(C)CC(CCNCc2ccccc2)(c2ccccc2)CCO1 (configuration not stated) returned NPYLR7 ag -14 and NPYLR7 ag max-min -18.
`CCOc1ccc(C(=O)Nc2cc(-c3cccs3)nn2-c2nc(C)cc(=O)[nH]2)cc1` gave NPYLR7 ag -3 and NPYLR7 ag max-min -5.
Screening Cc1ccc(C(=O)NC(C(=O)NC2CC2)C2CCN(C(=O)c3ccc(Cl)cc3)CC2)cc1 (configuration not stated) returned NPYLR7 ag -5 and NPYLR7 ag max-min -5.
Cc1ccccc1NC(=O)N(CCc1ccccc1)C(C)c1nc2ccccc2c(=O)n1-c1ccc(Br)cc1 (configuration not stated) was read as NPYLR7 ag 16 and NPYLR7 ag max-min 27.
For O=C(/C=C/c1cccc(Cl)c1Cl)NC(C1CC1)C1CC1 the results were NPYLR7 ag -7 and NPYLR7 ag max-min -5.
`CC(C)CNC(=O)C(C)OC(=O)CCc1ccc(-c2ccccc2)o1` (configuration not stated) gave NPYLR7 ag -2 and NPYLR7 ag max-min -5.
Screening Nc1nc(N)c2ncc(Cc3ccccc3)nc2n1 returned NPYLR7 ag 6 and NPYLR7 ag max-min 9.
`CCCn1c(C(C)N(CCc2ccccc2)C(=O)Nc2cccc(Br)c2)nc2ccccc2c1=O` (configuration not stated) gave NPYLR7 ag 14 and NPYLR7 ag max-min 10.
CCOC(=O)c1cnc(-c2ccccc2)nc1N(C)CCc1ccccc1 was read as NPYLR7 ag 15 and NPYLR7 ag max-min 26.
CCCc1ccc(Oc2c(C)oc3c(C)c(O)ccc3c2=O)cc1 was read as NPYLR7 ag 0 and NPYLR7 ag max-min -4.
For C=C(C)CSc1nnc(NC(=O)CC)s1 the results were NPYLR7 ag 5 and NPYLR7 ag max-min 7.
Screening CC(C)CCn1c(N2CCCCC2)nc2c1c(=O)n(C)c(=O)n2C returned NPYLR7 ag -8 and NPYLR7 ag max-min -10.
Screening Cc1cc(C(=O)N(CCCN2CCOCC2)c2nc3ccc(Cl)cc3s2)n(C)n1 returned NPYLR7 ag 1 and NPYLR7 ag max-min 1.
Screening O=C(Nc1ccccc1)c1csc(COc2ccc(F)cc2F)n1 returned NPYLR7 ag -3 and NPYLR7 ag max-min 2.
`Cc1nn(-c2ccc(Cl)cc2)c(Oc2ccccc2)c1CN(CC(O)Cc1ccccc1)CC1CC1` (configuration not stated) gave NPYLR7 ag 8 and NPYLR7 ag max-min 9.
CS(=O)(=O)CS(=O)(=O)C(F)(F)F was read as NPYLR7 ag 11 and NPYLR7 ag max-min 7.
O/N=C1/CCCC1NO (configuration not stated) was read as NPYLR7 ag 1 and NPYLR7 ag max-min -3.
For O=C(NCC(O)c1ccc(Cl)cc1)c1ccc[nH]c1=S (configuration not stated) the results were NPYLR7 ag 1 and NPYLR7 ag max-min 6.
COc1ccc(S(=O)(=O)NCCn2nc(-c3ccc(Cl)cc3)ccc2=O)cc1C was read as NPYLR7 ag 0 and NPYLR7 ag max-min -2.
`COCCOC(=O)C1=C(C)NC2=C(C(=O)CCC2)C1c1ccccc1OCc1ccccc1` (configuration not stated) gave NPYLR7 ag 9 and NPYLR7 ag max-min 1.
`CCCCOc1ccc(C(=O)NCCc2cc3cc(C)c(C)cc3[nH]c2=O)cc1` gave NPYLR7 ag 0 and NPYLR7 ag max-min 45.
CC1(C)CN=C(N2CCN(Cc3cscn3)CC2)S1 was read as NPYLR7 ag 4 and NPYLR7 ag max-min 2.
For O=C(c1cccc(Br)c1)N(Cc1cccc(OCc2nc(CO)cs2)c1)C1CC1 the results were NPYLR7 ag 16 and NPYLR7 ag max-min 10.
`CN(Cc1ccsc1)C(=O)c1cccc2c(=O)c3ccccc3[nH]c12` gave NPYLR7 ag 18 and NPYLR7 ag max-min 6.
For CN(CCOc1ccccc1)C(=O)c1cnn(CCN2CCCCC2)c1 the results were NPYLR7 ag 10 and NPYLR7 ag max-min 10.
Cc1cc(C)n(C)c(=O)c1C(=O)N1CCCC(CCc2ccc(F)c(F)c2)C1 (configuration not stated) was read as NPYLR7 ag 6 and NPYLR7 ag max-min 2.
`Cc1c(/C=N\N2CCOCC2)cc(C#N)n1C` gave NPYLR7 ag -16 and NPYLR7 ag max-min -15.
For COc1ccccc1C(=O)COC(=O)CCN1C(=O)c2ccccc2C1=O the results were NPYLR7 ag 5 and NPYLR7 ag max-min 4.
COCc1cccc(C(=O)Nc2nc(C3CC3)cs2)c1 was read as NPYLR7 ag 6 and NPYLR7 ag max-min 2.
COC(=O)C1(C(=O)NCCSC2Sc3ccccc3NC2=O)CC1 (configuration not stated) was read as NPYLR7 ag 5 and NPYLR7 ag max-min 3.
Screening CC(NC(=O)/C=C/c1ccc(Br)cc1)c1ccccc1 (configuration not stated) returned NPYLR7 ag 1 and NPYLR7 ag max-min 7.
`COc1ccc(O)c(C(=O)c2cnn(-c3ccc(C)cc3C)c2)c1` gave NPYLR7 ag 4 and NPYLR7 ag max-min 0.
Screening O[C@H]1[C@H](NCC2CCCCC2)[C@H]2CO[C@H](O2)[C@@H]1Oc1ccccc1 returned NPYLR7 ag -6 and NPYLR7 ag max-min -14.
Screening Cc1ccc2oc(-c3cc(NC(=O)c4ccc(F)cc4)ccc3O)nc2c1 returned NPYLR7 ag 12 and NPYLR7 ag max-min 14.

3 entries drawn at random from those above:
Screening Cc1ccc2oc(-c3cc(NC(=O)c4ccc(F)cc4)ccc3O)nc2c1 returned NPYLR7 ag 12 and NPYLR7 ag max-min 14.
For CN(CCOc1ccccc1)C(=O)c1cnn(CCN2CCCCC2)c1 the results were NPYLR7 ag 10 and NPYLR7 ag max-min 10.
`Cc1c(/C=N\N2CCOCC2)cc(C#N)n1C` gave NPYLR7 ag -16 and NPYLR7 ag max-min -15.

Molecules from the list above with an aryl thioether with sulfur outside any ring, in the order listed:
`c1csc(-c2noc(CSc3ncnc4sccc34)n2)c1` gave NPYLR7 ag 8 and NPYLR7 ag max-min 6.
For C=C(C)CSc1nnc(NC(=O)CC)s1 the results were NPYLR7 ag 5 and NPYLR7 ag max-min 7.

(continued)
O=C(Nc1ccccc1OC(F)F)N1CCN(CC(OCc2ccc(C(F)(F)F)cc2)c2ccc(Cl)cc2)CC1 (configuration not stated) was read as NPYLR7 ag 4 and NPYLR7 ag max-min 1.
CC(OC(=O)C1CC2CCCC(C1)C2=O)c1nnc(-c2cccs2)o1 (configuration not stated) was read as NPYLR7 ag 2 and NPYLR7 ag max-min -5.
For CC1(c2ccc(Cl)cc2)NC(=O)N(CC(=O)NCCc2ccc(F)cc2)C1=O (configuration not stated) the results were NPYLR7 ag 0 and NPYLR7 ag max-min -2.
For COc1cccc(C2CCN(C(=O)c3cn(C4CCCCC4)nn3)C2)c1OC (configuration not stated) the results were NPYLR7 ag 1 and NPYLR7 ag max-min 0.
CCCc1c(C)nn(-c2ccc(C(=O)Nc3ccc(Cl)cc3)cc2)c1C was read as NPYLR7 ag -6 and NPYLR7 ag max-min -15.
CC(=O)Nc1ccc(C(=S)NCc2ccccc2)cc1 was read as NPYLR7 ag 2 and NPYLR7 ag max-min -3.
CCCCCc1c2c(cc(O)c1C(=O)O)OC(=O)c1cc(C(=O)CCCC)c(OC)cc1O2 was read as NPYLR7 ag 3 and NPYLR7 ag max-min 2.
Screening Cc1ccc(C(=O)Nc2c(N)nc(SCC(=O)Nc3ccc(F)cc3F)[nH]c2=O)cc1 returned NPYLR7 ag -5 and NPYLR7 ag max-min -5.
Screening O=C1C(=O)N(CCN2CCOCC2)C(c2ccccc2)C1=C(O)c1ccc(Cl)cc1 (configuration not stated) returned NPYLR7 ag 1 and NPYLR7 ag max-min 8.
`O=C(O)C=CC(=O)N1CCN(C(=O)C=CC(=O)O)CC1` gave NPYLR7 ag 1 and NPYLR7 ag max-min -1.
`Cc1nnc(NC(=O)CCN2C(=O)/C(=C/c3ccc(F)cc3)SC2=S)s1` gave NPYLR7 ag -6 and NPYLR7 ag max-min -9.
For Cn1nnc2c(N3CCN(C(=O)CCc4ccccc4)CC3)ncnc21 the results were NPYLR7 ag 0 and NPYLR7 ag max-min 8.
COC(=O)[C@@H](NCC(=O)Nc1ccc(C)cc1C)c1ccccc1 was read as NPYLR7 ag 1 and NPYLR7 ag max-min 4.
COc1cc(C(C2Sc3nc(C)nn3C2=O)N2CC(C)OC(C)C2)cc(OC)c1OC (configuration not stated) was read as NPYLR7 ag 2 and NPYLR7 ag max-min 0.
For CC(Oc1ccccc1F)C(=O)NCCCn1ncccc1=O (configuration not stated) the results were NPYLR7 ag -9 and NPYLR7 ag max-min -14.
`CCC1Oc2ccc(N)cc2CN(CCc2ccc(OC)c(OC)c2)C1=O` (configuration not stated) gave NPYLR7 ag 14 and NPYLR7 ag max-min 2.
For O=[N+]([O-])c1cccc(N=NN(CCO)c2cccc([N+](=O)[O-])c2)c1 the results were NPYLR7 ag 1 and NPYLR7 ag max-min 1.
`O=C(Nc1nncs1)c1cccs1` gave NPYLR7 ag 4 and NPYLR7 ag max-min 13.
